Source: PubChem BioAssay
Mtb MbtI inh = blocks the Mycobacterium tuberculosis siderophore enzyme MbtI; inhibition, %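 (about 17 µg/mL by stock and volumes)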; 100,000 tested, 0.89% active; P9WFX0; purified MbtI enzyme, fluorescence intensity read-out;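 active means above 50% in both replicates, above 80% if mildly self-fluorescent; inactive means the rest, strongly fluorescent compounds included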;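 further: 0% = mean of negative and 100% = mean of positive controls; one replicate is shown; some compounds called inactive have numbers as strong as hits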
Mtb MenB inh = Mtb MenB enzyme inhibition; P9WNP5; MenB enzyme assay, absorbance read-out; some hits fall short of the stated cut; inhibition, %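 (about 12 µg/mL by stock and volumes)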; 100,000 tested, 0.43% active; AID 540299;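 active means mean of two replicates above 30%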;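 further: 0% = no compound and 100% = wells with inactive enzyme; the first replicate is given; strong numbers were not always called active; inactives centre near -10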
Target sequence (P9WNP5 whole entry, looked up): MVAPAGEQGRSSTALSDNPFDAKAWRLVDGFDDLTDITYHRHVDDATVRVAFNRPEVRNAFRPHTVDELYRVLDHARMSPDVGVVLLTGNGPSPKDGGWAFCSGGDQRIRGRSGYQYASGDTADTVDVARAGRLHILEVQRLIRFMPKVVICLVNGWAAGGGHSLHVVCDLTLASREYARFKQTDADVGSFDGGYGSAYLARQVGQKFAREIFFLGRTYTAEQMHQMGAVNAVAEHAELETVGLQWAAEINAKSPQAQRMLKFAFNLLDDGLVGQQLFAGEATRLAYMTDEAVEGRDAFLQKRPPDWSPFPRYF
PV pol inh = inhibitors of poliovirus RNA polymerase binding and polymerization; P03300; poliovirus polymerase elongation, fluorescence polarization; stronger effect = lower value; % elongation, % (compound at 16.7 µg/mL); 150,000 tested, 0.66% active; in the data active means % elongation below about 90%; further: some results filed as inactive read as strong as hits
Target sequence (P03300 1749-2209 limits assumed): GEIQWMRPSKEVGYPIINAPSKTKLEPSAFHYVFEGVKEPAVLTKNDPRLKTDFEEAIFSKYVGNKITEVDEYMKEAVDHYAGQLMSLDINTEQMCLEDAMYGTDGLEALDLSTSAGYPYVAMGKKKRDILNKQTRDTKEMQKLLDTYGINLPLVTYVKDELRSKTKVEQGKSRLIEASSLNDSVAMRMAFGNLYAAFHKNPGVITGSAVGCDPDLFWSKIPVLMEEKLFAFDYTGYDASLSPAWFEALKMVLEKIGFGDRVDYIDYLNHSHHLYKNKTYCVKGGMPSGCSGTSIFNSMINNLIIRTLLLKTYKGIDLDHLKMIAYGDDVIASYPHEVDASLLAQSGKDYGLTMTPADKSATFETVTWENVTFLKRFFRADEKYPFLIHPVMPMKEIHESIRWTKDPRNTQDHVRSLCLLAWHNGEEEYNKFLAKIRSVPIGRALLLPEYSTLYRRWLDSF
PV pol inh intensity = also measured in PV pol inh; calls as there; % elongation; measured here: total intensity read-out; formula for this scale not given here;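 total fluorescence in place of polarization; lower means less elongation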
An asterisk follows results filed as active; / = no result given.

SMILES	Mtb MbtI inh	Mtb MenB inh	PV pol inh	PV pol inh intensity
O=C(c1ccccc1)c1nn(-c2ccc(Cl)cc2)ccc1=O	2.8	-15.8	103.0	95.0
Cc1cc(=O)oc(C)c1C(=O)Nc1ccccc1C(=O)N1CCCCC1	16.1	-6.6	104.0	105.0
COc1cc(/C=C\C(=O)NCc2ccc3c(c2)cc(C)n3C)cc(OC)c1OC	-10.6	-17.5	102.0	97.0
CN(C)c1ccc(/C=C(\C#N)S(=O)(=O)c2ccccc2)cc1C#N	-11.8	-18.4	106.0	111.0
Cc1cc(N=Cc2c(O)n(-c3ccc(C(C)C)cc3)c(=O)c3ccccc23)n[nH]1	-5.0	-33.9	105.0	109.0
COc1ccc(C2c3sc(=O)[nH]c3SC3C(=O)N(CC(=O)O)C(=O)C32)cc1 (configuration not stated)	5.9	-7.9	106.0	105.0
Cc1c(=O)n(OCc2ccc(Cl)cc2)c2ccccc2[n+]1[O-]	-8.5	6.7	101.0	103.0
O=C(OCCN1C(=O)c2ccccc2C1=O)C1CCCCN1S(=O)(=O)c1ccccc1 (configuration not stated)	7.0	1.9	103.0	96.0
Cc1cc(=O)oc2c3c(ccc12)OCN(C(C)(C)C)C3	107.8	-26.2	105.0	102.0
Cc1ccc(OC(=O)OCSc2nn[nH]n2)cc1	16.8	-6.7	101.0	105.0

Continuation.
SMILES	Mtb MbtI inh	Mtb MenB inh	PV pol inh	PV pol inh intensity
O=C(CN1C(=O)S/C(=C\c2cccs2)C1=O)N1CCCC1	82.0	-5.5	101.0	96.0
COC(=O)c1ccc(NC(=O)C(C(C)C)N2C(=O)c3ccccc3C2=O)cc1 (configuration not stated)	-3.0	0.2	98.0	104.0
CCC(O)c1cc2c(cc1NC(=O)c1cccs1)OCCO2 (configuration not stated)	-10.4	9.9	98.0	104.0
c1ccc(-n2nnnc2Sc2nc(C3CC3)n(-c3ccccc3)n2)cc1	0.0	-9.0	103.0	98.0
C=CCSC1=C(C#N)C(c2ccccc2Cl)C(C(=O)c2cccs2)C(O)(C(F)(F)F)N1 (configuration not stated)	/	-28.4	103.0	99.0
CC(=O)Nc1ccc(C(=O)OCC(=O)Nc2ccc3ccccc3c2)cc1	12.4	/	104.0	100.0
Cc1cn(CC(=O)NCCN)c(=O)[nH]c1=O	/	-29.6	100.0	110.0
COC(=O)CN1C(=O)C(C)(C)Oc2ccc(C(=O)Nc3cccc(OC)c3)cc21	1.0	-41.7	102.0	103.0
c1ccc(Cn2nnnc2SCc2ccc(CSc3nnnn3Cc3ccccc3)cc2)cc1	-10.4	-52.4	99.0	98.0
CCOC(=O)c1[nH]c(CO/N=C/C(=O)Nc2ccc3c(c2)OCCO3)c(C(=O)OCC)c1C	-15.6	-2.9	104.0	107.0

(cont.)
SMILES	Mtb MbtI inh	Mtb MenB inh	PV pol inh	PV pol inh intensity
Cc1ccc(NC(=O)Cc2c(C)nc3ncnn3c2C)cc1	-6.9	-35.0	103.0	106.0
CN1CCN(C(=O)CCN2C(=O)/C(=C/c3ccc(Cl)cc3)SC2=S)CC1	-8.2	-17.8	103.0	107.0
COC(=O)c1ccc(C2OCCCO2)cc1	/	-11.3	105.0	105.0
COc1ccc2[nH]c(=O)c(CNCc3ccccc3)cc2c1	125.8	9.1	103.0	103.0
Cc1noc(NC(=O)NC(=O)c2cc(F)c(N(C)C)c(F)c2)c1C	10.5	15.6	102.0	104.0
Cc1csc(=O)n1CCC(=O)OCc1ccc(C#N)cc1	0.8	-17.3	104.0	104.0
C=CCn1c(N)cc(=O)nc1SCC(=O)NC1CCCCC1	-1.4	15.3	101.0	102.0
CCCn1nc(C(=O)Nc2ccc(S(=O)(=O)N(C)C)cc2)c2ccccc2c1=O	11.9	-14.8	97.0	99.0
N#C/C(=C(/O)CN1CCN(Cc2ccccc2)CC1)c1nc(-c2ccccc2)cs1	-7.7	-15.4	103.0	108.0
COc1ccc(-c2noc(CC(=O)N(C(C)C)C3CCCCC3)n2)cc1	-5.7	-38.9	102.0	97.0

The results go on.
SMILES	Mtb MbtI inh	Mtb MenB inh	PV pol inh	PV pol inh intensity
CC(NC(=O)Cn1c(CCCO)nc2ccccc21)C1CC2CCC1C2 (configuration not stated)	0.9	-15.1	106.0	113.0
COc1cc(C2C3=C(CC(C)(C)CC3=O)N(C)C(=O)N2C)cc(OC)c1OC (configuration not stated)	20.9	7.4	99.0	106.0
Cc1nc(Sc2nnc3n2CCCCC3)c2c(-c3cccs3)csc2n1	-5.0	-28.5	103.0	109.0
CC(NC(=O)CSc1nccc(=O)[nH]1)C1CC2CCC1C2 (configuration not stated)	-7.8	-1.2	102.0	103.0
CSc1ccccc1NC(=O)CN(C)CC(=O)Nc1ccc(N2CCOCC2)cc1	0.7	-33.4	102.0	97.0
Cc1oc(-c2ccc(C(=O)O)cc2)nc1CN1CCCCC1	-9.2	-7.1	104.0	102.0
C=CCNC(=S)N1CCCc2ccccc21	5.9	-10.9	93.0	94.0
O=C1Nc2ccccc2/C1=C/c1ccc(-c2ccc(F)cc2)o1	-0.7	-32.8	125.0	164.0
CCOc1ccc(NCc2nc3ccccc3n2C)cc1	1.6	-9.4	101.0	103.0
COc1ccccc1C(=O)Nc1ccc2nc(SCC(=O)Nc3ccc(C)cc3C)sc2c1	/	-20.0	106.0	111.0

Among those listed so far, 2 have a COOH group:
SMILES	Mtb MbtI inh	Mtb MenB inh	PV pol inh	PV pol inh intensity
COc1ccc(C2c3sc(=O)[nH]c3SC3C(=O)N(CC(=O)O)C(=O)C32)cc1 (configuration not stated)	5.9	-7.9	106.0	105.0
Cc1oc(-c2ccc(C(=O)O)cc2)nc1CN1CCCCC1	-9.2	-7.1	104.0	102.0

Going on with the list.
SMILES	Mtb MbtI inh	Mtb MenB inh	PV pol inh	PV pol inh intensity
O=C(O)C1CCCN1Cc1c[nH]c2ccccc12 (configuration not stated)	-0.7	-8.5	102.0	99.0
CC(=O)N1CCN(CCNC(=O)c2ccncc2)CC1	-18.1	-3.5	105.0	103.0
O=C(Nc1ccc(N2CCCCC2)cc1)c1ccccn1	7.3	-11.9	104.0	109.0
CCC(=O)N=c1sc2cc(S(N)(=O)=O)ccc2n1CCOC	11.6	5.2	102.0	101.0
O=c1c(-c2ccc(F)cc2)coc2c3c(ccc12)OCCO3	-4.8	5.5	105.0	110.0
CN1C(=O)c2ccccc2C(C(=O)NCc2ccc(F)cc2)C1c1c[nH]c2ccccc12 (configuration not stated)	-5.6	-17.0	104.0	103.0
O=C(NC1CCCC1)c1cc2c(=O)n3ccccc3nc2nc1NCC1CCCO1 (configuration not stated)	89.9	-69.1	102.0	103.0
COc1ccc(S(=O)(=O)N(C(=O)C2CCCCC2)c2ccc3oc(=O)sc3c2)cc1OC	-13.3	-26.4	101.0	107.0
Cc1ccc(N(C(=O)c2cc3ccccc3oc2=O)C2C=CS(=O)(=O)C2)cc1 (configuration not stated)	-13.1	-10.1	102.0	105.0
COc1ccc2c(c1)-c1c(ssc1=S)C(C)(C)N2C(=O)CSc1nc2ccccc2o1	2.0	-35.4	103.0	103.0

Going on with the list.
SMILES	Mtb MbtI inh	Mtb MenB inh	PV pol inh	PV pol inh intensity
CCOc1ncccc1C(=O)Nc1ccnn1Cc1ccccn1	5.7	-21.5	105.0	109.0
O=C(Nc1cc(Cl)cc(Cl)c1)N1CCC(n2cccc2)CC1	-9.3	-23.0	106.0	113.0
CN(C)c1ccc(NC(=O)CSc2nc(N)cc(=O)[nH]2)cc1	7.3	28.0*	99.0	102.0
COc1ccc(C(=O)C(CN2CCCCC2)c2ccccc2)cc1 (configuration not stated)	2.0	11.9	101.0	103.0
CCn1c(N2CCN(CC(=O)c3ccc(OC)cc3)CC2)nc2ccccc21	-2.7	-11.4	100.0	108.0
COc1ccc(CC(=O)N2CCCC2c2nnc(SCc3ccccc3)n2C)cc1 (configuration not stated)	-3.3	-17.5	100.0	100.0
Clc1ccc(N=C2SCC3CCCCN23)cc1 (configuration not stated)	-6.9	-41.8	102.0	97.0
CCC(C(=O)NCc1cc(Br)ccc1OC)n1nc(C)n2c(cc3occc32)c1=O (configuration not stated)	14.6	2.4	102.0	97.0
N#C/C(=N\Nc1ccc(S(=O)(=O)N2CCCCC2)cc1)C(N)=S	-0.8	-148.5	103.0	102.0
Cc1cc(=O)[nH]c(SCC(=O)Nc2cccc3ccccc23)c1C#N	-6.2	/	101.0	102.0

Carrying on:
SMILES	Mtb MbtI inh	Mtb MenB inh	PV pol inh	PV pol inh intensity
NNC(=S)NC1CCCCCCCCCCC1	-6.3	-38.1	101.0	108.0
Cc1ccc(CN(C)C(=S)NCc2ccccc2)o1	-1.4	-10.4	100.0	105.0
O=S(=O)(Cc1ccccc1)N1CCC(c2nc(-c3cccs3)no2)CC1	0.1	-18.3	102.0	102.0
O=C(O)CNc1ccc(-n2ccnc2)nn1	1.2	9.2	100.0	102.0
Nc1ccc(C(=O)N2CCOCC2)cc1	/	-11.6	101.0	110.0
N/C(=N\OC(=O)N1CCOCC1)c1ccccc1	-3.2	8.3	100.0	101.0
O=C(COC(=O)c1cccc(NC(=O)c2ccc(Cl)cc2)c1)c1ccccc1	-16.8	/	101.0	100.0
CC(C(=O)Nc1ccc2c(c1)OCO2)N(C)Cc1c(F)cccc1Cl (configuration not stated)	-2.6	2.6	/	/
Cc1nnc2ccc(NN)nn12	4.8	-24.5	101.0	103.0
O=C1C2CNC3(C(=O)Nc4ccccc43)C2C(=O)N1Cc1ccccc1 (configuration not stated)	4.7	-25.2	103.0	99.0

Continuation:
SMILES	Mtb MbtI inh	Mtb MenB inh	PV pol inh	PV pol inh intensity
Cc1cc(C)n(CCCC(=O)NCCn2nccc2C)n1	-5.3	17.2	99.0	102.0
CC(C)(c1ccccc1)c1ccc(O)cc1	/	-6.5	106.0	99.0
CN(CC(=O)N1CCCC1)c1nnc(N2CCCC2=O)s1	-6.5	-16.4	104.0	106.0
CCCN1CCN(CCCNC(=O)Nc2ccc3c(c2)N(Cc2ccc(C)cc2)C(=O)CS3)CC1	0.8	9.5	100.0	102.0
N#C/C(C(=O)NCc1ccccc1)=C(/O)CN1C(=O)c2ccccc2C1=O	-0.9	-19.3	109.0	132.0
Cc1cc(C)c2oc(-c3ccc(NC(=O)COc4ccc(Br)cc4)cc3O)nc2c1	/	7.4	109.0	107.0
Cc1ccnc(NC(=O)C(C)(C)Oc2ccc(Cl)cc2)n1	0.3	/	103.0	98.0
COCCNC(=O)c1cc(-c2ccccc2)n[nH]1	4.3	-3.8	104.0	103.0
CC1CCN(C(=O)Cn2ncc3c2-c2ccccc2OC3)CC1	-9.1	-7.4	102.0	102.0
CNC(=O)C(C)n1nc(C)c2sc3ccccc3c2c1=O (configuration not stated)	6.0	6.4	99.0	103.0

New compounds follow
SMILES	Mtb MbtI inh	Mtb MenB inh	PV pol inh	PV pol inh intensity
CCCCC(=O)Nc1nnn(CCC)n1	-19.6	-11.5	100.0	98.0
O=c1c(-c2ccccc2)[n+]([O-])c2ccccc2n1OCc1ccccc1	-1.4	-21.2	102.0	106.0
Cc1ccc(N2CC(C(=O)Nc3ccc(S(=O)(=O)NC4CCCCC4)cc3)CC2=O)cc1 (configuration not stated)	-18.1	-13.3	101.0	101.0
O=C1C2=C(CCCC2)C(=O)N1CNc1ccccc1	-6.9	16.4	108.0	119.0
O=C(Nc1ccccn1)C12CCC(CC1)C2	-5.2	/	101.0	104.0
CC(C)CNS(=O)(=O)c1ccc(S(=O)(=O)N2CCCN(Cc3ccccc3)C2)cc1	2.0	-35.8	101.0	103.0
COC(=O)c1c(CSc2nnc(-c3ccc(OC(F)F)cc3)o2)nc2ccccc2c1C	-5.7	3.5	103.0	113.0
COc1ccc(/C(O)=C/c2nc3ccc(C(=O)NCCc4ccccc4)cc3[nH]c2=O)cc1	-2.6	-57.1	105.0	112.0

Whole records, quoted from the list. Order of values: Mtb MbtI inh, Mtb MenB inh, PV pol inh, PV pol inh intensity
CCCCC(=O)Nc1nnn(CCC)n1 as listed: -19.6, -11.5, 100.0, 98.0
CC(C)CNS(=O)(=O)c1ccc(S(=O)(=O)N2CCCN(Cc3ccccc3)C2)cc1 as listed: 2.0, -35.8, 101.0, 103.0
O=C1C2=C(CCCC2)C(=O)N1CNc1ccccc1 as listed: -6.9, 16.4, 108.0, 119.0
O=C(Nc1ccccn1)C12CCC(CC1)C2 as listed: -5.2, /, 101.0, 104.0
